Source: PubChem (several laboratories)
Arbovirus anti – blocks arbovirus infection. arbovirus infection cell-based antiviral screen. inhibition, % at 10 µM. 0.37% of 200,000 active. AID 1251;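 active means inhibition from about 30%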;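 further: bluetongue infection of BSR cells; cell survival read as ATP light after 72 h; 0% = infected wells without compound and 100% = uninfected wells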
RecA intein inh – inhibitors of M. tuberculosis RecA intein splicing; P9WHJ3; 0.75% of 290,000 active; inhibition, %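 (about 9 µM by stock and volumes)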; cell-free RecA intein splicing, fluorescence; in the data active means inhibition above about 30%;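 further: 0% = vehicle wells and 100% = reference inhibitor control wells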
Target sequence (P9WHJ3 whole entry, looked up): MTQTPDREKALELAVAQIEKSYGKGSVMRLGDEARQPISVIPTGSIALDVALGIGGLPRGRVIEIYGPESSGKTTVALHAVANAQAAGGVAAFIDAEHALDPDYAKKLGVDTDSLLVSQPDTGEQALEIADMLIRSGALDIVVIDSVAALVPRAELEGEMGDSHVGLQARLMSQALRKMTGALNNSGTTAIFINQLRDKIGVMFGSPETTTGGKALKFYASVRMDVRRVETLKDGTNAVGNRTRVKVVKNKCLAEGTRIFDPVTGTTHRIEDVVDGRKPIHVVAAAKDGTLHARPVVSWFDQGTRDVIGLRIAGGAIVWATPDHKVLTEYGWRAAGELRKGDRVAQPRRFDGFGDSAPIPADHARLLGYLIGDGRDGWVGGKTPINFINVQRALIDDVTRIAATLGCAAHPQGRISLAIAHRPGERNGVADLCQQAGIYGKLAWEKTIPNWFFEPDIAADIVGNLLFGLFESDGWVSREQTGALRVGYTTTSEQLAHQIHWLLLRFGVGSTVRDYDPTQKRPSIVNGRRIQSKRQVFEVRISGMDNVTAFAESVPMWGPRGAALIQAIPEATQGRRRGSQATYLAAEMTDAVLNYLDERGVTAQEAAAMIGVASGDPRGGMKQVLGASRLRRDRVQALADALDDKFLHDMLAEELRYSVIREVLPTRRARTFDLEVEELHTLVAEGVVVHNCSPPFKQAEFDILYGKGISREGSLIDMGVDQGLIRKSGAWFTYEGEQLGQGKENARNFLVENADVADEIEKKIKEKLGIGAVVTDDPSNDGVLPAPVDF
YopH PTP inh – YopH (Yersinia) phosphatase inhibition; fluorescence Ex485/Em525; 0.16% of 140,000 active; AID 898; inhibition, %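 (about 10 µM by stock and volumes)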;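 active means inhibition of 50% or more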;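 further: controls were vehicle for no effect and minimum signal wells for full effect; inactives centre near -20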
Mtb H37Rv – M. tuberculosis H37Rv growth inhibitors, H37Rv strain (AID 1626); M. tuberculosis H37Rv growth inhibition; higher % means a stronger effect; one-dose inhibition, % at 10 µM; IC50 in µM for titrated hits; 0.95% of 220,000 active;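 active means confirmed in a dose series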;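 further: bacteria incubated seven days before Alamar blue readout; 0% = bacteria only wells and 100% = bacteria with antibiotic wells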
Mtb bLac sens – beta-lactam sensitization of Mtb H37Rv; M. tuberculosis H37Rv growth with meropenem, percent inhibition; hits of this screen are not shown here; inhibition, % at 25 µM; 0.27% of 330,000 active; AID 434955;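 active means about 74% or more and at least 40 points above the plate without the antibiotic, then above 30% in a dose series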;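 further: growth measured after seven days incubation then overnight dye step; 0% = bacteria only wells and 100% = bacteria with antibiotic; twin plates without the antibiotic show which effects depend on it; some results filed as inactive read as strong as hits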
Arbovirus anti repeat – also measured in Arbovirus anti; calls as there; inhibition, %; measured here: 10K subset replicate screen; many hits read low in the repeat;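 first of two repeat runs on a subset; 0% = infected and 100% = uninfected wells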
Active calls of the source: *; · = no result given; & = joins results of further samples. Not all compounds are listed. The share of hits here may be higher or lower than overall.

SMILES	Arbovirus anti	RecA intein inh	YopH PTP inh	Mtb H37Rv	Mtb bLac sens	others
O=C(Cn1nnc(-c2cccs2)n1)NNC(=O)c1ccccc1Cl	·	1.3	·	-2%	3
O=C(NC(=S)NCc1cccnc1)c1ccc([N+](=O)[O-])cc1	-4	0.6	·	-8%	1
Cc1ccoc1C(=O)N1CCCC(CCC(=O)N2CCN(c3ccccn3)CC2)C1 (stereo not drawn)	2	-1.3	·	3%	-5
CCc1ccc(OCC(=O)NNC(=O)C2CCC2)cc1	·	2.0	·	·	2
Cc1cc(C)c(NC(=O)CCCOC(=O)C2=COCCO2)c(C)c1	3	0.3	-10	5%	58
O=C(CCN1C(=O)C2C3C=CC(C4CC34)C2C1=O)Nc1ccc(Cl)cc1O (stereo not drawn)	·	1.3	·	·	-15
O=S(=O)(c1cccc(F)c1)N1CCN(Cc2ccc3c(c2)OCO3)CC1	2	1.7	-14	-10%	-3
CSc1ccc(/C=C/C(=O)OCC(=O)NC(C)C)cc1	2	13	·	1%	4
COc1ccc(S(=O)(=O)N2CCCCC2)cc1NC(=O)c1cccs1	·	-1.1	·	·	-6
CC(C)NCCOCCOc1ccc(Cl)cc1Br	-32	-3.5	-25	5%	-2
COc1ccc(NC(=O)C/C(C)=N/NC(=O)c2cnccn2)cc1Cl	·	3.3	·	·	97
Cc1oc(CN2CCOCC2)cc1C(=O)O	9	-1.3	·	-7%	0
O=c1[nH]cnc2c1cnn2Cc1ccccc1Cl	·	-3.2	·	·	-8
CC(=O)[C@@H]1[C@@H](C(=O)c2ccc(C)cc2)[C@]2(C(=O)Nc3ccccc32)[C@H]2C=Cc3cc(F)ccc3N12	-2	3.7	27	13%	15
O=C(O)C12CC3CC(C1)CC(n1cnc(Cl)n1)(C3)C2	1	-3.4	4	-9%	-14
COc1ccc(NC(=O)c2cc(-c3ccccc3)on2)cc1	·	4.5	·	·	1
O=C(Nc1ccc(-c2ccc3nncn3n2)cc1)C1CCCCC1	3	-1.4	·	26%	40
OC(COc1ccc2c(c1)OCO2)CN1CCc2ccccc2C1 (stereo not drawn)	-6	-0.3	-45	9%	1
COC(=O)N/N=C/c1c(C)cc(C)cc1C	1	-1.6	-17	-2%	-7
O=C(/C=C/c1ccccc1)NC1CCS(=O)(=O)C1 (stereo not drawn)	-11	3.3	-14	-6%	2
O=C(O)c1nnn(-c2ccc(F)cc2F)c1-c1ccccc1	·	-1.4	·	·	-1
O=C(CSc1ccc2ccccc2n1)Nc1nsc(-c2ccc(Cl)cc2)n1	0	-0.4	-4	-6%	-5
CCOC(=O)c1sc(=S)n(CC)c1N	-8	0.4	-36	-4%	-5
O=C(O)C1c2ccccc2C(=O)N(Cc2ccc(F)cc2)C1c1ccncc1 (stereo not drawn)	·	0.0	·	-7%	0
CSc1ccc(CCNC(=O)C2CCCN(S(=O)(=O)N3CCOCC3)C2)cc1 (stereo not drawn)	·	0.0	·	·	-2

Grouped by structure, the compounds so far containing a COOH group
SMILES	Arbovirus anti	RecA intein inh	YopH PTP inh	Mtb H37Rv	Mtb bLac sens	others
Cc1oc(CN2CCOCC2)cc1C(=O)O	9	-1.3	·	-7%	0
O=C(O)C12CC3CC(C1)CC(n1cnc(Cl)n1)(C3)C2	1	-3.4	4	-9%	-14
O=C(O)c1nnn(-c2ccc(F)cc2F)c1-c1ccccc1	·	-1.4	·	·	-1
O=C(O)C1c2ccccc2C(=O)N(Cc2ccc(F)cc2)C1c1ccncc1 (stereo not drawn)	·	0.0	·	-7%	0

Later entries.
SMILES	Arbovirus anti	RecA intein inh	YopH PTP inh	Mtb H37Rv	Mtb bLac sens	others
Cc1ccc(CN2CCS(=O)(=O)CC2)cc1	3	-0.3	-16	-6%	-6
Cc1cccc(CSc2nc3c(c(=O)n2C)SCC3)c1	-4	7.4	·	1%	-3
NC(=O)c1cc(N)ccc1N1CCCCC1	-8	-6.3	·	2%	3
Nc1nccnc1C(=O)N/N=C/c1ccco1	·	-6.0	·	1%	-2
COc1cc(/C=C(/C#N)c2nc3ccccc3c(=O)[nH]2)ccc1O	-12	-11	-149	-13%	6
CN(Cc1ccccc1)C(=O)c1ccccc1NC(=O)c1ccco1	-7	-0.8	-17	·	-2
CCOC(=O)/C(=C/Nc1ccc(F)cc1)[N+](=O)[O-]	·	0.3	·	2%	-11
CC(C)(Oc1ccc(Cl)cc1)C(=O)OCC(=O)N1CCCC1	15	-0.9	-42	-5%	-17	Arbovirus anti repeat=3
COc1ccccc1CCN1CCCC(CN(C)C(=O)c2ccoc2)C1 (stereo not drawn)	·	-0.7	·	·	4
O=C(CSc1nc2ccccc2[nH]1)NCC1CCCO1 (stereo not drawn)	2	-2.2	-25	-2%	-1
CCOC(=O)Cn1cnc2sc(C(=O)OC)c(C)c2c1=O	-2	-1.7	·	0%	-8
Cc1cc(C(=O)NCCC2=CCCCC2)no1	0	-0.9	31	-6%	·
COC(=O)C1=C(C)NC(C)=C(C(=O)OC)C1C(=O)OC(C)C(=O)c1ccccc1 (stereo not drawn)	1	-2.1	·	2%	-3&3
O=C1C(NS(=O)(=O)c2ccc(Br)cc2)=C(N2CCCCC2)C(=O)c2ccccc21	·	12	·	·	4
O=C1CCCN2N=C(SCC(=O)Nc3nc4ccccc4s3)SC2=N1	5	·	·	4%	6
Cc1ccc(C2C(C#N)=C(N)Oc3n[nH]c(-c4cccs4)c32)cc1 (stereo not drawn)	-16	66*	-20	-1%	-10
COc1ccc2oc(=O)cc(CN3CCOCC3)c2c1	·	0.4	·	·	1
CC(=O)Oc1ccc(C(=O)[C@H]2[C@H]3C(=O)N(c4ccc5ccccc5c4)C(=O)[C@H]3[C@@H]3C=CC=NN32)cc1	2	-0.3	2	69%	59
O=C(CCC1CCN(C(=O)c2cc(C(F)(F)F)ccc2Cl)CC1)NC1CC1	·	-3.0	·	·	-4
CCCCn1c(C)csc1=Nc1cccnc1	6	2.7	-11	7%	15
Cc1cc(C)nc(SCc2nnc(SCC(=O)N3CCCc4ccccc43)n2C)n1	1	-0.2	-9	-1%	0
COc1ccc(N2C(=O)CC(Sc3nnc(-c4ccccc4F)n3C)C2=O)cc1 (stereo not drawn)	4	-0.5	·	3%	-6
COC(=O)C1(C)NC(c2ccccc2OC)C2C(=O)N(c3ccccc3)C(=O)C21 (stereo not drawn)	·	0.0	·	·	-24
CSc1ccc(CN(C)CC(=O)NCCc2ccccc2)cc1	·	0.2	·	·	-12
COc1cccc(CN2CCN(C(=O)c3ccc(-c4ccccc4)cc3)CC2)c1	6	4.6	-19	0%	28

Overlap with the part before: five compounds, followed by the next part.
SMILES	Arbovirus anti	RecA intein inh	YopH PTP inh	Mtb H37Rv	Mtb bLac sens	others
Cc1cc(C)nc(SCc2nnc(SCC(=O)N3CCCc4ccccc43)n2C)n1	1	-0.2	-9	-1%	0
COc1ccc(N2C(=O)CC(Sc3nnc(-c4ccccc4F)n3C)C2=O)cc1 (stereo not drawn)	4	-0.5	·	3%	-6
COC(=O)C1(C)NC(c2ccccc2OC)C2C(=O)N(c3ccccc3)C(=O)C21 (stereo not drawn)	·	0.0	·	·	-24
CSc1ccc(CN(C)CC(=O)NCCc2ccccc2)cc1	·	0.2	·	·	-12
COc1cccc(CN2CCN(C(=O)c3ccc(-c4ccccc4)cc3)CC2)c1	6	4.6	-19	0%	28
O=C(Nc1ccccc1C(=O)OCC(=O)c1c[nH]c2ccccc12)c1ccco1	3	8.4	-21	15%	9
CS(=O)(=O)Cc1nc2ccccc2oc1=O	0	4.7	-31	1.5µM*	100
Cc1ccc(N2CCCC2=O)cc1S(=O)(=O)N1CCOCC1	·	0.7	·	·	2
CC1(C)CC(N2CCN(c3ccccc3)CC2)=CC(=[N+]2CCCC2)C1	0	6.3	9	-11%	4	Arbovirus anti repeat=5
CCCC(=O)Nc1cc2c(cc1C(=O)c1ccccc1)OCCO2	-5	-3.6	-45	7%	-5
CCSc1nc2ccccc2n1Cc1nc(N)nc(N(C)C)n1	-1	-1.9	24	8%	3
CC1CCc2nc3ccc(S(=O)(=O)N4CCC(C(=O)N5CCCCCC5)CC4)cc3c(C(=O)O)c2C1 (stereo not drawn)	4	4.0	·	-12%	-3
CCCCC(CC)C(=O)Nc1ccc(S(=O)(=O)N2CCCC2)cc1 (stereo not drawn)	·	1.1	·	·	1
COc1ccccc1C(C(=O)NCc1ccc(F)cc1)N(C(=O)c1csnn1)C1CC1 (stereo not drawn)	·	-1.3	·	·	2
Cc1ccc(SCC2(O)CCN(S(=O)(=O)c3ccc(Cl)cc3)CC2)cc1	-29	11	13	-6%	-2
CCCCN(C)Cc1cc(=O)oc2ccc3ccccc3c12	·	-2.2	·	·	0
COc1ccc(-c2csc(=NCCO)n2-c2ccccc2)cc1	·	0.3	·	·	9
O=C(Oc1ccc(OC(=O)N2CCCCC2)cc1)N1CCCCC1	5	1.5	·	9%	-1
CCn1c(CCNC(=O)c2cccs2)nnc1SCC(=O)NC1CCCCC1	7	0.1	-13	3%	-3
O=C(COc1ccccc1-c1ccccc1)NCc1ccco1	2	4.5	·	0%	49
Cc1cc(C)n2nc[n+](C)c2n1	8	-2.1	-26	-1%	1
O=C(O)CC12C[C@H]3C[C@@H](C1)CC(n1ncc(N4CCN(c5ccccc5)CC4)c(Cl)c1=O)(C3)C2	5	0.8	-11	-7%	1
COc1ccc(OC(=O)c2cn(C)nc2C(F)(F)F)cc1	-13	0.3	9	9%	-14
CCC(CCC(=O)Nc1ccn(-c2ccccc2)n1)C(=O)O (stereo not drawn)	3	-0.1	-41	4%	2
Cc1nn(C)cc1S(=O)(=O)Nc1ccc(F)c(F)c1	·	0.8	·	·	-3
CCc1cc(C(=O)COc2ccccc2F)c(O)cc1O	-1	6.6	-24	-2%	-5	Arbovirus anti repeat=1
Cn1c2ccc(F)cc2c2nc3ccccc3nc21	·	-1.4	·	·	-1
Cc1c(C#N)c(O)n(CCO)c(=O)c1N=Nc1ccccc1	·	-1.9	·	-9%	-9
Cc1noc(C)c1CS(=O)(=O)c1ccc(Br)cc1	-1	0.4	-6	·	-10
Cc1ccccc1-c1nc(CN2CCC(C(=O)NCCCN3CCCC(C)C3)CC2)c(C)o1 (stereo not drawn)	·	1.0	·	·	0
Next part:
SMILES	Arbovirus anti	RecA intein inh	YopH PTP inh	Mtb H37Rv	Mtb bLac sens	others
Cc1ccccc1OC(C)C(=O)Nc1ccc(S(=O)(=O)N2CCCC2)cc1 (stereo not drawn)	·	3.0	·	·	-19
O=c1cc(O)nc[nH]1	·	-0.1	·	-8%	-3
CCn1ncc(Br)c1C(=O)Nc1cc(C)cc(C)c1	-7	1.0	-31	4%	-3
Cc1cc2nnc(SC(C)C)n2c2ccccc12	-3	-0.3	8	1%	-1
Cc1ccc(C)c(OCCCC(=O)N2CCOCC2)c1	3	-7.4	·	-4%	2
CCOC(=O)C1=C(C)N=c2s/c(=C\c3ccc(O)c([N+](=O)[O-])c3)c(=O)n2C1c1ccccc1OC (stereo not drawn)	·	-1.5	·	·	1
Cc1cc(C)c(NC(=O)C2CCCN(S(=O)(=O)c3c(C)noc3/C=C/N(C)C)C2)c(C)c1 (stereo not drawn)	·	-3.9	·	·	-1
O=C(CCS(=O)NCc1ccccc1)NCc1ccccc1 (stereo not drawn)	12	59*	-40	-7%	-8	Arbovirus anti repeat=0
O=C(N/N=C/c1c[nH]c2ccccc12)c1cc(-c2ccc(-c3ccccc3)cc2)n[nH]1	-33	2.6	5	6%	25
CCC(=O)OC1(C)C(=O)C=C2C=C(CCCC(=O)OC)OC=C2C1=O (stereo not drawn)	·	-9.0	·	-4%	-3
CC(C)c1csc(CN2CCC(CO)(Cc3cccc(F)c3)CC2)n1	6	1.5	·	-5%	8
O=C(NCc1ccccc1)N1CCC(Cc2ccccc2)CC1	·	-4.2	·	·	0
COc1cccc(N(C(=O)c2snc(C(N)=O)c2N)C(C(=O)NCc2ccccc2)c2ccc(O)cc2)c1 (stereo not drawn)	·	1.0	·	·	4
Cc1ccccc1NC(=O)CSc1nc(Nc2ccccc2)nc(N2CCOCC2)n1	12	0.6	-11	1%	-1
COc1ccc(C)cc1Nc1n[n+](-c2ccccc2)c(-c2cc(OC)c(OC)cc2Br)s1	·	11	·	·	88
O=C(NCC1CCCO1)c1ccc(S(=O)(=O)Nc2ccccc2F)cc1 (stereo not drawn)	·	1.8	·	·	-3
O=C(Oc1ccc[nH]c1=O)c1cccc(Cl)c1	·	-1.3	·	-6%	-9
CSCCC(NC(=O)c1ccco1)C(=O)N1CCCCCCC1 (stereo not drawn)	·	1.4	·	·	-6
CC(=O)N1CCN(c2ccc(NC(=O)c3cc4ccccc4o3)cc2)CC1	·	0.2	·	·	0
O=C(CSc1nnc2ccccn12)Nc1ccc(S(=O)(=O)N2CCOCC2)cc1	-7	-0.5	·	0%	1
O=c1c2ccccc2ncn1-c1cccc([N+](=O)[O-])c1	·	1.8	·	·	-4
Cc1ccc(C)c(N(CC(=O)NC2CCCC2)C(=O)c2csnn2)c1	·	0.6	·	·	-2
CCSc1nsc(NC(=O)Nc2ccc(F)cc2F)n1	·	1.0	·	·	1
O=C(CNc1cccc(S(=O)(=O)N2CCCC2)c1)Nc1cccc(F)c1	·	2.0	·	·	3
